# HNF4A DNA FP = change in binding of human HNF4A to DNA, primary screen, biochemical, fluorescence polarization, FITC-DNA | 1 h | activity change, % at 10 µM | 0.3% of 360,000 active; in the data active = activity change above about 30%, passing the limit was not always enough;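 also: controls were the assay level and a saturating level of protein; the project sought stronger binding though the title names inhibitors; some compounds called inactive have numbers as strong as hits; positive values seem to mean higher polarization but the record does not say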
# Target sequence (P41235 whole entry, looked up): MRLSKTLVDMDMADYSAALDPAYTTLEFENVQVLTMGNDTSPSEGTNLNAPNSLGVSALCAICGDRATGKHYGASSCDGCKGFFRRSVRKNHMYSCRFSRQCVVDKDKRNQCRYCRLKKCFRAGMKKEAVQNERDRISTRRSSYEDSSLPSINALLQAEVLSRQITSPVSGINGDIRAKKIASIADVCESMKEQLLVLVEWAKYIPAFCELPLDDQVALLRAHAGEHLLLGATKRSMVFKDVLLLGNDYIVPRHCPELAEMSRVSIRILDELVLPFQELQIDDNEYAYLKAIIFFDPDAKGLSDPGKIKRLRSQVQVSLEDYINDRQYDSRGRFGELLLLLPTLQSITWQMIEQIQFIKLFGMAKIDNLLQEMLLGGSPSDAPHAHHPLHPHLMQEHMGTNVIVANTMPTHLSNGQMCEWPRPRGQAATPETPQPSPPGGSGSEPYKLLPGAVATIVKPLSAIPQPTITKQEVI
# FGF22 binding = binders of human FGF22 protein, primary screen, FGF22 synaptogenesis inhibitor project, biophysical, thermal shift, single point; Fibroblast growth factor 22 (Homo sapiens), Q9HCT0; recombinant FGF22 thermal shift, SYPRO orange fluorescence; percent of sucrose octasulfate shift, DMSO zero; calls only at 9.99 µM; 1.5% of 340,000 active; AID 651658, 2012;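 active = melting point raised past a set limit in the mean and every replicate; inconclusive = no clear call; three in four hits are not shown here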
# Target sequence (Q9HCT0 whole entry, looked up): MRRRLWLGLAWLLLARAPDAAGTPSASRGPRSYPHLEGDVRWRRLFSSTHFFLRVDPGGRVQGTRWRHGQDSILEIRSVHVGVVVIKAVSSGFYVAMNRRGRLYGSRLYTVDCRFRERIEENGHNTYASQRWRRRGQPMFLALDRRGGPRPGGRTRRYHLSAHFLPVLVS
# E coli growth = E. coli growth inhibition, primary screen, OD600; 0.21% of 330,000 active; AID 1053175, 2014; Escherichia coli growth, 23 h; stronger effect = lower value; OD600 absorbance (no concentration beside the values);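 active = OD600 absorbance below the run mean of sample wells minus 3.6 SD, in any replicate, cut at about 0.56 in these data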;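 also: stock transfer was 300 nL into about 60 µL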
# Vif A3G = inhibitors of Vif binding to APOBEC3G peptide, primary screen, biochemical, TR-FRET, GST-Vif 1-94, biotin-A3G peptide, dose response retest (AID 1117319) | TR-FRET GST-Vif / biotin-A3G peptide binding; higher % means a stronger effect; test concentration not given here; strong numbers were not always called active | inhibition, %; hits with a dose series show IC50 in µM | 0.57% of 260,000 active;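 active = above the screen mean plus three standard deviations and confirmed in dose response; inconclusive = results disagree or hit not tested in dose response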;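 also: Vif residues 1-94 fused to GST binding biotinylated APOBEC3G peptide 110-148; 0% = full assay without inhibitor and 100% = GST in place of GST-Vif; retest series ran down from 100 µM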
# AF4-AF9 inh = inhibitors of AF4 peptide binding to AF9, primary screen, biochemical, AlphaScreen, biotin-AF4 peptide, FLAG-AF9, single point | AID 651704, 2012 | inhibition, % at 10 µM | Protein AF-9 (Homo sapiens), P42568 | 0.47% of 350,000 active;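 active = every replicate reaching a set inhibition limit, whatever the replicate mean, cut at about 25% in these data; inconclusive = mean inhibition reaches that limit but some replicates miss it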;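 also: 0% = plate neutral control median and 100% = total signal loss; the record names both 10 and 1 µM as test concentration; the first replicate is given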
# RanGTP-Imp inh = inhibitors of RanGTP-importin-beta interaction, primary screen, biochemical, FRET, CFP-Ran, YFP-importin-beta, homogeneous; cell-free CFP-Ran/YFP-importin-beta FRET ratio; 1.1% of 300,000 active; inhibition, % (concentration not given with the values); AID 2216, 2009;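 active = most replicates above 15%; inconclusive = exactly half above 15%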;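 also: 0% = DMSO wells and 100% = Ran loaded with GDP instead of GTP; wells of about 40 µL received 100 nL stock; the first replicate is given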
# UCH37 DUB inh = inhibitors of human UCH37 deubiquitinase, primary screen, biochemical, Ub-AMC cleavage, fluorescence; Ubiquitin carboxyl-terminal hydrolase isozyme L5 (Homo sapiens), Q9Y5K5; purified proteasome/UCH37; inhibition, % (concentration not given with the values); 0.33% of 330,000 active; AID 588478, 2011;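 active = mean of two replicates above 20%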;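 also: 0% = compound-free wells with enzyme and 100% = wells lacking proteasome; stock transfer was 100 nL into about 20 µL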
# Target sequence (Q9Y5K5 whole entry, looked up): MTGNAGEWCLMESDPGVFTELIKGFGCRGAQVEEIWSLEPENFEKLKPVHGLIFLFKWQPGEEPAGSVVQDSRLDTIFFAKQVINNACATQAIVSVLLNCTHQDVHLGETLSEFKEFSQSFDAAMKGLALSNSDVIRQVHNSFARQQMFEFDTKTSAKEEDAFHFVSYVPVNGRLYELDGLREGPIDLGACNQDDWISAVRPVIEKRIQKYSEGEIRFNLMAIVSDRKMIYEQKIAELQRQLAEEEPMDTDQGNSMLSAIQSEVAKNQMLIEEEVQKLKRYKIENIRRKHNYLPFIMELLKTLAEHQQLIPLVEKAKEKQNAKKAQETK
#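 Material: human UCH37 enzyme supplied as purified proteasome complex. Measure: % inhibition of Ub-AMC cleavage fluorescence. Medium: pH 7.4 Tris-HCl (50 mM) with ovalbumin, ATP-MgCl2, DTT. Times: 30 min preincubation with enzyme, 25 min cleavage at room temperature. Detection: AMC fluorescence intensity at 355/460 nm.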
# Starred values were filed as active, the others as inactive; i = inactive; u = inconclusive; x = not tested or not shown; & = joins results of further samples. Only part of the results is shown; the hit share may differ from the screen's.
SMILES,HNF4A DNA FP,FGF22 binding,E coli growth,Vif A3G,AF4-AF9 inh,RanGTP-Imp inh,UCH37 DUB inh
COc1cnn(-c2ccc(C)cc2)c(=O)c1Cl,2.3,x,0.66,4%,-0.6,-2.3,1.7
CCN(CC)C(=O)c1ccccc1NC(=O)c1ccccc1C,-1.0,i,0.72,5%,1.0,4.0,0.8
O=C(OCn1nnc2ccccc2c1=O)c1cc(-c2ccccc2)nc2ccccc12,0.7,i,0.74,-16%,0.0,4.0,-60
CC(C)CNS(=O)(=O)c1ccc(CCC(=O)Nc2cc(Cl)ccc2Oc2ccccc2)cc1,1.3,x,0.79,3%,x,3.4,5.1
CC(=O)Nc1ccc(C(=O)N2CCCCC2c2cc(C(=O)Nc3ccccc3)no2)cc1 (stereo not given),-1.5,i,x,x,0.9,x,x
CCOc1cc2[nH]c(=O)n(CCC(=O)NCCc3ccccc3)c(=O)c2cc1OCC,-0.6,x,0.74,0%,x,0.0,-5.8
CC(=O)N1[C@H](Cc2ccccc2)C=C[C@]1(C)C(=O)NCCN1CCOCC1,4.3,i,x,x,-0.3,-4.6,4.3
CN1CCC(C2(O)c3ccccc3CCc3ccccc32)CC1,1.8,i,0.7,3%,0.6,2.4,0.7
Brc1ccc(OCCn2ccnc2)cc1,-0.7,i,0.62,1%,2.2,-0.8,2.3
O=C(c1ccc(CN2CCOCC2)cc1)N1CCN(c2ccccc2F)CC1,-1.9,x,0.71,-4%,x,1.0,1.0
NC(=O)[C@@H]1CC2(CC(c3cccc(NC(=O)[C@H]4CCC(=O)N4)c3)=NO2)CN1C(=O)COc1ccc(Cl)cc1 (stereo not given in full),-3.5,i,x,6%,0.0,5.2,0.8
CC(Oc1ccc2c3c(c(=O)oc2c1)CCC3)C(=O)NCc1ccccn1 (stereo not given),2.4,i,0.66,x,-5.4,1.1,-24
COc1ccccc1C(=O)NC(=O)COC(=O)Cc1ccc(F)cc1,-3.3,i,0.7,-8%,0.3,x,0.7
COc1ccc(CCNC(=O)Cn2nnc(-c3cccc(OC)c3OC)n2)cc1OC,0.6,x,0.69,69%,x,-0.4,3.3
Cc1ccn2c(/C=N/OCc3cccc(F)c3)c(-c3ccc(Cl)cc3)nc2c1,-2.7,x,x,27%,x,3.4,x
CCOc1ncccc1C(=O)OCC(=O)NC(=O)c1ccccc1,-1.7,i,0.69,-9%,-0.9,x,2.1
O=C1c2ccc(Cl)cc2S(=O)(=O)c2cccc(C(=O)N3CCN(c4ncc(Br)cn4)CC3)c21,2.5,i,0.67,x,6.6,x,0.9
CC(C)(C)OC(=O)C[C@@H]1C/C=C\C[C@@H](CC(=O)N[C@@H](CO)Cc2ccccc2)C(=O)N2CCC[C@@H]2COC1=O,2.4,i,x,x,3.3,x,3.7
O=C(O)c1cc(S(=O)(=O)N(Cc2ccccc2)c2ccccc2Cl)ccc1Cl,2.2,i,0.68,-4%,-2.7,0.2,0.6
CCCCCCCC(=O)N/N=C/c1ccncc1,-3.7,i,x,-6%,4.5,1.4,x
CC(=NNC(N)=O)C1CC2CCC1CC2 (stereo not given),-0.9,x,x,-8%,2.3,x,x
CC1CCCCN1S(=O)(=O)c1ccc2c(c1)C(C)(C)C(=O)N2C (stereo not given),1.0,i,0.74,-4%,-1.0,5.6,2.2
O=C(c1ccccc1)n1c(=O)cc[nH]c1=O,-2.7,i,0.69,x,-0.7,-2.7,0.1
CC(=O)N1[C@H](C)C=C[C@]1(Cc1ccccc1)C(=O)NCc1cc(F)cc(C(F)(F)F)c1,-0.9,i,x,-4%,-4.0,u,1.7
CCOC(=O)c1ccc(NC(=O)CN2C(=O)CCC2=O)cc1,-2.5,x,0.81,-1%,x,x,0.8
COc1ccc(-c2cc(C(F)(F)F)nc(N3CCN(C)CC3)n2)cc1,0.2,x,0.67,2%,x,0.7,-12
c1ccc(COCCN2CCN(CCOCc3ccccc3)CC2)cc1,2.0,i,0.68,0%,12,-2.5,-1.4
Cc1cc(CNC(=O)C2CCC(=O)N(CCc3cccc(F)c3)C2)nn1C (stereo not given),1.0,i,0.7,-3%,-1.7,1.5,2.3
Cc1c(C)c2ccc(OCC(=O)N(C)C3CCS(=O)(=O)C3)c(C)c2oc1=O (stereo not given),0.3,i,0.69,-5%,-2.1,-0.2,-107
CC(=O)N1CCc2cc(S(=O)(=O)NC(C(=O)NC(C)c3ccccc3)C(C)C)ccc21 (stereo not given),-3.2,i,0.65,x,-0.3,-0.1,6.7
Cn1c(=O)n(CC(=O)NCC2CCCO2)c(=O)c2c3c(sc21)COC(C)(C)C3 (stereo not given),-1.0,i,0.7,x,-2.9,-1.4,2.1
CNC(=O)CN(CCc1ccccc1)S(=O)(=O)c1ccc(OC)cc1,-0.8,i,0.68,-1%,1.4,4.8,3.5
CC1CCN(C(=O)COC(=O)Cc2c[nH]c3ccccc23)CC1,0.1,i,0.7,-8%,1.4,2.1,2.5
COc1ccc(S(=O)(=O)N(C)c2ccc(C(=O)N3CCCCC3)cc2)cc1OC,-2.3,i,0.66,u,-4.5,6.5,0.5
CCN(CC)S(=O)(=O)c1ccc(NC(=O)c2nc3nc(C)cc(C)n3n2)cc1,x,i,0.67,x,0.5,3.2,2.8
CCOc1cc(N2CCOCC2)c(OCC)cc1NC(=O)CN1C(=O)NC(Cc2ccccc2)C1=O (stereo not given),-1.5,x,0.76,0%,x,2.0,4.4
O=C(CCCCCn1c(=O)[nH]c2ccccc2c1=O)NCCCN1CCN(c2ccccc2F)CC1,-0.7,x,0.7,u,x,-2.5,1.4
COC(=O)Cn1ncc2c3ccccc3n(Cc3ccccc3)c2c1=O,0.2,x,0.68,-8%,x,-2.6,-3.5
CNS(=O)(=O)c1cccc(C(=O)OCC(=O)Nc2ccc(-c3nc4ccc(C)cc4s3)cc2)c1,7.2,x,0.73,3%,x,2.9,-118
CC(C)OC(=O)CN1C(=O)S/C(=C/c2ccc(N3CCCCC3)o2)C1=O,8.9,i,0.69,u,-8.6,-45,3.9
Nc1nc(CCl)nc(Nc2ccccc2)n1,-0.7,i,0.68,6%,-2.5,0.4,-0.4
O=C(Nc1ccccc1)C1=C(O)CC(c2ccoc2)CC1=Nc1ccccc1 (stereo not given),0.0,x,0.72,u,x,-4.0,-1.6
CC1CCCCC1NS(=O)(=O)CCNC(=O)c1ccccc1 (stereo not given),6.2,i,x,x,-1.9,-1.8,x
Cc1cc(C)cc(NC(=O)C(OC(=O)Cn2cnc3c2c(=O)n(C)c(=O)n3C)c2ccccc2)c1 (stereo not given),3.6,i,0.71,-7%,1.8,0.5,0.3
O=C(c1cc(-c2ccc(Cl)cc2)n(-c2cc(Cl)ccc2Cl)n1)N1CCOCC1,-1.2,x,0.72,u,x,6.1,3.1
CN(C)S(=O)(=O)c1cccc(COC(=O)c2cccnc2Cl)c1,4.0,i,0.68,6%,-11,-2.7,5.6
O=C(c1ccc(Br)o1)N1CCCc2ccccc21,3.3,x,0.67,10%,x,-1.6,1.7
COc1cc(/C=N/Nc2nc(=O)[nH]nc2C)ccc1O,3.3,i,x,7%,-4.0,u,x
CSc1nnnn1-c1ccc(C)c(Cl)c1,-1.4,x,0.72,-5%,x,2.9,3.0
COc1ccc(/C=N/NC(=O)C2c3ccccc3Oc3ccccc32)c(OC)c1,0.0,x,x,9%,x,0.1,x
COc1ccc(/C=C/C(=O)c2cc(Br)ccc2OC(=O)c2ccco2)cc1OC,-2.0,i,0.74,x,-1.1,4.5,2.2
O=C(NCCCN1CCOCC1)c1cc2c(s1)CSC2,4.4,x,0.67,18%,x,2.5,-11
CCCC(=O)C1=C(O)C(C(=O)OC)C(C)(C)CC1=Nc1ccncc1 (stereo not given),3.8,x,0.7,-6%,x,-2.9,4.6
O=C(Nc1sc2c(c1C(=O)O)CCCC2)c1ccc(Cl)cc1,-1.6,i,x,x,2.6,0.0,x
CCOc1ccc(C(=O)n2cnnc2N)cc1,-1.7,x,0.62,x,-2.8,-0.8,2.5
CC(C)CNC(=O)C(=O)NCc1ccccc1,-0.7,x,0.73,-6%,-1.5,-3.8,2.4
COc1cccc(-c2ccc3c(c2)S(=O)(=O)c2cccc(C(=O)O)c2C3=O)c1OC,1.9,i,0.69,x,x,x,3.7
O=C(NC1CC1)C1=C[C@@H](c2csc3ccccc23)C[C@@H](OCc2ccc(CO)cc2)O1,-0.8,i,0.8,7%,-3.4&-1.1,2.7,1.4
O=C(Nc1ccc2[nH]c(=O)[nH]c2c1)C(F)(F)F,-3.2,i,0.71,2%,-1.6,4.2,1.1
O=C(CCS(=O)(=O)c1ccc(Cl)cc1)Nc1nccs1,2.4,x,0.68,x,-0.7,x,-0.2
# Further records:
SMILES,HNF4A DNA FP,FGF22 binding,E coli growth,Vif A3G,AF4-AF9 inh,RanGTP-Imp inh,UCH37 DUB inh
Cc1ccccc1-c1cc(C(=O)NCc2cccc(Br)c2)n(CC2CC(c3cccnc3)=NO2)n1 (stereo not given),-4.5,i,0.71,x,-8.2,x,-0.4
COc1ccc(Cc2nc3ccc(C(=O)N4CCCCC4CCO)cc3o2)cc1 (stereo not given),-2.3,x,0.65,x,0.5,4.0,-0.3
CCOC(=O)c1cc(NC(=O)/C=C\C(=O)O)ccc1Cl,-2.0,i,0.66,x,0.6,-2.5,0.8
O=C(COC(=O)c1ccccc1NC(=O)C1CC1)c1ccc2c(c1)OCCO2,x,x,0.7,22%,x,2.1,1.8
Nc1ncc(Br)cc1S(=O)(=O)Nc1ccccc1F,1.1,i,0.61,x,-11,2.4,1.5
CN1CCN(c2nc3c(c(=O)[nH]c(=O)n3C)n2CC(N)=O)CC1,0.3,i,0.68,2%,7.9,-1.4,1.1
CCC(=O)N/C(N)=N/c1nc2ccccc2o1,3.4,i,0.58,3%,-0.3,u,1.7
O=C(NC(Cc1ccccc1)C(=O)O)/C(=C/c1ccc([N+](=O)[O-])cc1)NC(=O)c1ccco1 (stereo not given),2.5,i,0.65,x,-0.2,u,6.0
COC(=O)c1sccc1NC(=O)CNC(=O)c1ccccc1,1.2,i,0.71,-1%,-16,0.4,0.5
O=C(NC1CCCC1)C1CCN(C(=O)c2ccccc2Cl)CC1,1.7,i,0.67,x,-12,-1.2,5.3
O=c1[nH]c2ccc(NS(=O)(=O)c3ccc(Cl)cc3)cc2[nH]1,3.1,i,0.64,x,-2.8,1.4,1.8
COc1ccc(NC(=O)c2nc[nH]c2C(=O)N(C)Cc2ccccc2)cc1,-1.4,i,0.68,u,17,-4.3,4.9
CCCCc1c(O)nc(SCC(=O)Nc2ccc(C)cc2)n(-c2ccc(OC)cc2)c1=O,-3.0,i,0.7,x,-0.4,-0.4,2.8
Cc1ccc(C(=O)N2CCN(C)CC2)cc1S(=O)(=O)N1CCOCC1,-0.4,i,0.65,5%,-0.1,0.9,2.6
NC(=O)CSc1nnc(CSc2ncccn2)n1-c1ccccc1,-2.8,i,0.69,x,1.6,4.1,-1.5

# Just FGF22 binding and UCH37 DUB inh, for some of the entries so far:
Structure	FGF22 binding	UCH37 DUB inh
O=C(c1cc(-c2ccc(Cl)cc2)n(-c2cc(Cl)ccc2Cl)n1)N1CCOCC1	x	3.1
O=C(c1ccccc1)n1c(=O)cc[nH]c1=O	i	0.1

# High-throughput results as filed in PubChem BioAssay.
